# HNF4A DNA FP: change in binding of human HNF4 alpha to DNA; P41235; HNF4a-FITC DNA binding, fluorescence polarization, 1 h; activity change, % at 10 µM; actives 0.3% (n = 360,000); in the data active means activity change above about 30%, passing the limit was not always enough;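 further: controls were the assay level and a saturating level of protein; the project sought stronger binding though the title names inhibitors; some compounds called inactive have numbers as strong as hits; positive values seem to mean higher polarization but the record does not say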
# Target sequence (P41235 whole entry, looked up): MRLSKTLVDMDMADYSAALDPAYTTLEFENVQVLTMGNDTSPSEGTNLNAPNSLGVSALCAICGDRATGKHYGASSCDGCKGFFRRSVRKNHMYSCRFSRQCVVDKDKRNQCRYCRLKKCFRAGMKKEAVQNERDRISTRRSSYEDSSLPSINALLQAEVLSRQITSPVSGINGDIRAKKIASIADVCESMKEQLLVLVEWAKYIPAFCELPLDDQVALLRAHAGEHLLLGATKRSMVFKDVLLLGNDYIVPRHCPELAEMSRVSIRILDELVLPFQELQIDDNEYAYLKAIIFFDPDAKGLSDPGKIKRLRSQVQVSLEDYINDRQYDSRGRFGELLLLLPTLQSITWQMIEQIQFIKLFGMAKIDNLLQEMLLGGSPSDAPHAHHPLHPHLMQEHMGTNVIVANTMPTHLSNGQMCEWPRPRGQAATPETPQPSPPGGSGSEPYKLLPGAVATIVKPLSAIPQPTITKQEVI
# LANA-H2B inh: blocks KSHV LANA binding to histone H2A/H2B | Q9QR71 | cell-free LANA-H2A/H2B peptide, fluorescence polarization | inhibition, % (no concentration beside the values) | actives 0.6% (n = 320,000); in the data active means inhibition mostly above about 10%, no sharp cut-off; inactive means mostly below about 6.7%;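 further: stock transfer was 7.5 nL into about 10 µL; 0% = median of vehicle wells and 100% = median of positive control wells; one replicate is shown; the record names a cut of 25% in any replicate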
# ALR H2O2 inh: inhibitors of human sulfhydryl oxidase ALR; purified ALR, DTT oxidation, H2O2 HRP-luminol luminescence; inhibition, % (concentration not given with the values); actives 3.8% (n = 290,000); AID 485317;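 active means mean and each replicate at 75% or more; inconclusive means only one of the two met; inactive means neither met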;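 further: stock transfer was 7.5 nL into about 7.5 µL; 0% = neutral wells and 100% = wells with inactivated enzyme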
# B2AR ag: human beta-2 adrenergic receptor agonism by FAP; P07550; Am2.2-beta2AR cells, FAP receptor internalization, flow cytometry; reference of the scale not given here; response, % (no concentration beside the values); actives 0.43% (n = 340,000); AID 504454;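 active means response above a set limit, near 3 SD of response in nonfluorescent compounds, cut at about 42% in these data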;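 further: stock transfer was 100 nL into about 11 µL; a reference agonist was the positive control; negative values mostly stem from fluorescent compounds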
# Target sequence (P07550 whole entry, looked up): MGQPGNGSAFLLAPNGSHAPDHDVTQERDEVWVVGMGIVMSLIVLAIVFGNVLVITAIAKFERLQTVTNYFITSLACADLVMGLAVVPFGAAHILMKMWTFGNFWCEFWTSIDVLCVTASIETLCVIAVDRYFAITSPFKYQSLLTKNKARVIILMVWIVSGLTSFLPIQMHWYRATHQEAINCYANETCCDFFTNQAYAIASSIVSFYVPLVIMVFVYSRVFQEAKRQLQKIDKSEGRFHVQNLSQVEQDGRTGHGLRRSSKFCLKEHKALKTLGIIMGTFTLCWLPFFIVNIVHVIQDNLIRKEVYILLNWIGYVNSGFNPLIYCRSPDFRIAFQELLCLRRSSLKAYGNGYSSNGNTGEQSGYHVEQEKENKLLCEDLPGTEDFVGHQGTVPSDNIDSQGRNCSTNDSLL
# Calb FLC: affects C. albicans growth with fluconazole | C. albicans CaCi-2 (fluconazole-resistant clinical isolate) + fluconazole, Alamar Blue growth, 48 h | growth inhibition, % (concentration not given with the values) | actives 0.57% (n = 300,000) | AID 1979;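 active means most replicates above 75%; inconclusive means exactly half above 75%; inactive means most below 75%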;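 further: all wells also contain fluconazole at 8 µg/ml as a sub-toxic cotreatment; 0% = median of DMSO wells and 100% = median of geldanamycin control wells; wells of about 8 µL received 7.5 nL stock; the first replicate is given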
# RanGTP-Impb inh: inhibitors of RanGTP-importin-beta interaction, primary screen, biochemical, FRET, CFP-Ran, YFP-importin-beta, homogeneous | cell-free CFP-Ran/YFP-importin-beta FRET ratio | inhibition, % (concentration not given with the values) | actives 1.1% (n = 300,000) | AID 2216;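 active means most replicates above 15%; inconclusive means exactly half above 15%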;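 further: 0% = DMSO wells and 100% = Ran loaded with GDP instead of GTP; wells of about 40 µL received 100 nL stock; the first replicate is given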
# Vif A3G: HIV-1 Vif–A3G interaction blockers – biochemical, TR-FRET, GST-Vif 1-94, biotin-A3G peptide, dose response retest, primary screen (AID 1117319). one-dose inhibition, %; IC50 in µM for titrated hits. actives 0.57% (n = 260,000). TR-FRET GST-Vif / biotin-A3G peptide binding; higher % means a stronger effect; test concentration not given here; strong numbers were not always called active;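 active means above the screen mean plus three standard deviations and confirmed in dose response; inconclusive means results disagree or hit not tested in dose response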;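 further: Vif residues 1-94 fused to GST binding biotinylated APOBEC3G peptide 110-148; 0% = full assay without inhibitor and 100% = GST in place of GST-Vif; retest series ran down from 100 µM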
# Numbers without * were called inactive; ? = inconclusive; . = no result given; & = joins results of further samples. The order is random; about 6.3% have a hit in one of these screens.
SMILES,HNF4A DNA FP,LANA-H2B inh,ALR H2O2 inh,B2AR ag,Calb FLC,RanGTP-Impb inh,Vif A3G
Cc1noc(C)c1COc1ccccc1C(=O)NC1CCC(C)CC1 (stereo not given),-0.4,-7.9,1.6,0.9,-4.9,8.2,.
COc1ccc(-c2nnc(SCC(=O)NCc3cccs3)n2CC(C)C)cc1,4.5,0.6,-16.1,-2.9,-3.4,1.5,11.1%
Cc1ccc(S(=O)(=O)NC(=O)c2cccc(Br)c2)cc1,1.2,-0.4,0.4,10.8,.,.,.
CC(C)c1ccc(S(=O)(=O)Nc2ccc(SC(F)F)cc2)cc1,1.7,-0.5,-17.9,-0.1,21.0,-2.4,?
CCN(C[C@H]1N[C@@](Cc2ccccc2)(C(=O)OC)[C@H]2C(=O)N(Cc3ccccc3)C(=O)[C@@H]12)C(=O)Nc1ccc(F)cc1,-2.7,.,.,-10.4,.,.,4.0%
Cn1cccc1Cc1nnc(SCC(=O)NCc2ccc(F)cc2)n1-c1ccc(F)cc1,3.0,0.9,.,-1.1,13.9,1.7,-13.4%
COc1ccc2cc3cc(C(=O)NCc4ccc5c(c4)OCO5)oc3nc2c1,-0.1,-7.4,-28.6,-7.4,3.0,2.1,-4.0%
CC1CCCN(c2c3c(nc4ccccc24)CCCC3)C1 (stereo not given),0.1,-4.1,-7.4,4.4,1.4,4.2,-0.6%
COC(=O)CCCNC(=O)CCc1nnc(-c2ccc(-c3ccccc3)cc2)o1,-1.6,0.7,.,3.6,-12.5,-2.6,2.8%
Cc1ccc(NC(=O)Cn2c(=O)n(CCCC(=O)NCc3ccco3)c(=O)c3ccccc32)cc1,1.0,2.0,.,-15.2,0.0,5.0,-1.6%
CN(C)c1ccc(S(=O)(=O)NCC(=O)NCc2ccccc2)cc1[N+](=O)[O-],-0.1,-2.0,.,1.2,-1.4,-0.8,-0.2%
COc1ccccc1CNC(=O)Cn1nc(C(F)(F)F)cc1C,-1.3,-3.4,.,2.3,.,.,17.5%
Cc1cccc(OCc2cc(-c3ccccc3)no2)c1C,2.6,-0.2,3.2,-7.8,-31.8,1.0,2.3%
CCc1cccc(C)c1NC(=O)C1CCCO1 (stereo not given),0.1,-1.0,-29.2,0.2,.,-6.3,3.3%
CC(C=NNc1ccc([N+](=O)[O-])cn1)=Cc1ccccc1,9.5,.,.,-1.9,.,.,-2.5%
COC(=O)c1ccccc1NC(=O)CSCC(=O)Nc1ccc(F)cc1,-2.0,1.1,-10.3,-3.7,-19.2,-4.5,-2.9%
COCCNCCCOc1ccc(C)cc1Br,-1.8,1.4,-0.8,12.4,-0.1,3.3,-4.3%
CCC(=O)N1CCc2cc(Br)cc(S(=O)(=O)N3CCC(C(=O)NCCCOC(C)C)CC3)c21,0.1,-1.1,-0.2,-18.1,10.3,3.2,.
O=C(NCc1cccnc1)C(=O)NCC1OCCN1S(=O)(=O)c1cc(F)ccc1F (stereo not given),1.8,-8.2,-6.6,7.6,0.8,-3.4,25.9%
CC(O)CNCCCOc1ccccc1OCc1ccccc1 (stereo not given),-2.0,-2.4,6.9,-2.8,-0.8,-3.7,-0.5%
Cc1oc(-c2ccc(Cl)cc2)nc1CS(=O)CC(=O)NCCCN1CCN(Cc2ccccc2)CC1 (stereo not given),6.8,8.8,?,5.1,22.3,-1.4,9.8%
CC(NC(=O)Nc1ccccc1)C(c1cccs1)N1CCN(C)CC1 (stereo not given),-1.4,-1.2,32.1,-0.4,0.4,4.3,-0.5%
N#CCC(=O)Nc1ccccc1C(=O)O,4.2,-0.5,-14.7,2.0,7.8,-2.4,2.4%
CN(C(=O)CSc1nnc(-c2ccc(C(C)(C)C)cc2)n1C)C1CCS(=O)(=O)C1 (stereo not given),-0.5,-10.0,.,-5.6,.,.,-2.0%
Cc1ccc(C(=O)N2CCC(N3CCC(C(=O)N4CCOCC4)CC3)CC2)cc1C,2.2,0.7,-2.3,1.3,-2.3,-0.2,-2.1%
Cc1ccc(NC2(C(F)(F)F)N=C(c3ccccc3)NC2=O)nc1 (stereo not given),-0.6,1.7,5.0,12.3,5.0,-1.8,-4.4%
O=C1C(=O)N(CC2COc3ccccc3O2)c2ccccc21 (stereo not given),0.2,3.6,-2.1,45.6*,-1.7,0.4,-1.4%
CNC(=O)c1ccccc1NC(=O)c1ccco1,-1.2,3.0,-0.2,14.2,5.7,-3.2,26.0%
CCN(c1ccc(NC(=O)c2ccc(N3CCCC3=O)cc2)cc1)C(C)C,0.5,.,.,1.8,-11.4,1.2,4.3%
CC(O)Cc1cn(CC(=O)N2CCN(C(=O)OC(C)(C)C)CC2)nn1 (stereo not given),-0.3,-1.2,-6.8,-0.6,1.9,-0.4,-1.4%
Clc1ccc(Cn2ccc(-c3ccc4c(c3)OCO4)n2)cc1Cl,2.8,1.4,.,20.6,-52.4,9.0,?
COc1cccc(OCC(O)CO)c1 (stereo not given),-0.7,-4.6,-34.7,-7.3,-4.1,-1.1,3.1%
OCCNc1nc(Nc2ccc(Cl)cc2)nc(N2CCCC2)n1,-3.2,0.6,-2.7,-3.5,3.2,1.3,.
CN(Cc1ccccc1)S(=O)(=O)c1ccc(NC(=S)NC(=O)C(C)(C)C)cc1,1.9,-6.0,-0.3,-0.9,-6.6,-2.8,.
OCCNc1nc2ccccc2n1CC(O)c1ccccc1 (stereo not given),120.3*,-2.0,9.4,-4.9,1.2,-1.4,-10.2%
O=C(Cn1c(=O)[nH]c2ccsc2c1=O)NC1CCCCC1,3.0,-3.9,4.3,-9.8,-17.9,?,-5.7%
COc1ccc(OC)c(CN2CCN(c3ccc(S(=O)(=O)N4CCCC4)cn3)CC2)c1,-0.5,0.8,-3.0,-3.5,.,.,-5.0%
Cc1ccc(C(=O)Nc2oc(-c3ccccc3)cc2C#N)cc1,9.6,0.4,26.5,1.5,-5.0,-1.7,6.2%
CCCn1c(SCC(=O)O)nc2ccccc21,2.9,0.6,8.9,-1.6,-2.8,2.4,3.3%
O=C(C1CCCN(S(=O)(=O)Cc2ccccc2)C1)N1CCCCC1 (stereo not given),-1.9,-1.9,-4.8,-6.6,25.0,2.1,1.0%
CN1C(=O)C(CC(=O)Nc2ccccc2)S/C1=N/c1nccs1 (stereo not given),2.9,0.0,.,-13.0,-0.6,1.7,4.7%
COc1ccc(C(=O)CN2C(=O)NC(C)(c3ccc(C)cc3)C2=O)cc1OC (stereo not given),-6.6,-0.2,-9.1,-6.3,4.2,-1.0,-4.0%
Cc1onc(-c2ccccc2)c1C(=O)NC(C)c1ccccc1 (stereo not given),-1.2,-0.7,8.7,-43.4,-5.2,3.3,.
CCC1C(C#N)=C(SCC(N)=O)NC2=C1C(=O)CC(C)(C)C2 (stereo not given),1.2,3.5,96.6*,0.7,-4.6,4.1,14.5%
Cn1c(N)c(C(=O)COC(=O)c2cccs2)c(=O)n(C)c1=O,-2.1,1.7,-4.9,-5.4,1.5,-3.7,8.3%

# Structural class: the entries above containing bromine
SMILES,HNF4A DNA FP,LANA-H2B inh,ALR H2O2 inh,B2AR ag,Calb FLC,RanGTP-Impb inh,Vif A3G
Cc1ccc(S(=O)(=O)NC(=O)c2cccc(Br)c2)cc1,1.2,-0.4,0.4,10.8,.,.,.
COCCNCCCOc1ccc(C)cc1Br,-1.8,1.4,-0.8,12.4,-0.1,3.3,-4.3%
CCC(=O)N1CCc2cc(Br)cc(S(=O)(=O)N3CCC(C(=O)NCCCOC(C)C)CC3)c21,0.1,-1.1,-0.2,-18.1,10.3,3.2,.

# Additional compounds.
SMILES,HNF4A DNA FP,LANA-H2B inh,ALR H2O2 inh,B2AR ag,Calb FLC,RanGTP-Impb inh,Vif A3G
Cc1cc([N+](=O)[O-])c(C(C)(C)C)cc1N,1.9,-7.0,0.3,-3.2,1.8,4.3,4.1%
O=C(Cn1cnc2ccccc2c1=O)Nc1nc2ccccc2s1,2.9,-3.6,-1.9,-2.9,4.4,-2.4,24.0%
CNC(=O)COC(=O)CNC(=O)c1cc(Cl)cc([N+](=O)[O-])c1,-1.8,-3.5,-20.5,-0.2,0.5,2.7,-4.0%
Nc1nc(NCc2ccccc2)nc(Nc2ccc(F)cc2)c1[N+](=O)[O-],-0.1,1.3,-11.9,25.6,24.5,6.2,-6.6%
Cc1cc(C(=O)CN2C(=O)c3ccccc3C2=O)c(C)n1Cc1cccs1,2.6,2.1,.,0.6,2.7,-2.1,9.2%
CC1CCN(CC(O)COC2CCC(C(C)(C)C)CC2)CC1 (stereo not given),2.4,-1.5,1.1,6.3,.,.,-2.4%
Cc1c(NC(=O)CCCCCN2C(=O)C3C4C=CC(C4)C3C2=O)c(=O)n(-c2ccccc2)n1C (stereo not given),-1.8,0.9,2.4,-0.1,9.5,3.3,-4.9%
Cc1ccc(F)cc1CNC(=O)c1cc(COc2ccc3ncccc3c2)on1,2.2,-2.4,-5.7,-0.7,-7.9,4.2,-4.5%
COc1ccc(CC(=O)NNS(=O)(=O)c2ccc([N+](=O)[O-])cc2)cc1OC,3.5,1.5,.,12.2,2.4,-1.1,.
COc1ccc(Cl)cc1C(=O)O/N=C(\N)c1ccccn1,0.8,1.4,6.6,-0.2,-3.9,-3.2,?
Cc1cccc(C(=O)NCC(=O)N2CCN(S(=O)(=O)/C=C/c3ccccc3)CC2)c1,0.9,.,.,-3.0,.,.,-9.0%
CN1C(c2ccccc2)CC(=NO)CC1c1ccccc1 (stereo not given),-3.8,-2.3,-0.9,2.2,-10.3,-0.9,.
c1ccc(CCCN2CCN(c3ccccc3)CC2)cc1,2.8,-1.1,86.3*,-4.4,-28.3,-3.4,2.5%
Cc1c(/C(O)=C2/C(=O)C(=O)N(CCN3CCOCC3)C2c2cccnc2)cnn1-c1ccccc1 (stereo not given),0.5,-0.8,0.2,5.2,6.0,0.6,-2.3%&-1.8%
Cc1nn(Cc2ccc(Cl)c(Cl)c2)c(C)c1NC(=O)c1cc(CC(C)C)on1,1.0,1.1,-0.6,-3.5,4.4,-0.8,-0.2%
COc1ccc(OC)c(C(=O)N(C[C@H]2CC[C@@H]([C@@H]3CC[C@H](CO)O3)O2)C(C(=O)NC(C)(C)C)c2ccc(-c3ccccc3)cc2)c1 (stereo not given in full),-0.2,.,.,0.0,.,.,-5.1%
CCSc1nc2c([nH]1)c(=O)n(C)c(=S)n2C,-2.4,.,.,-0.3,.,.,6.5%
COc1ccc(CN(CCCN2CCOCC2)S(=O)(=O)N(C)C)cc1OC,2.3,1.3,-3.2,3.0,-10.9,1.9,?
C=CCN(CC=C)CCCOc1ccc(Br)cc1Cl,-5.2,-4.1,-4.1,-2.5,-37.3,3.6,-4.5%
CCOCCCNC(=O)C(c1ccc(OC)cc1)N(Cc1ccc2c(c1)OCO2)C(=O)c1ccccc1O (stereo not given),-2.1,-0.6,0.4,-6.2,45.9,0.2,6.6%
C[C@H]1CCC/C=C/[C@@H]2C[C@H](O)C[C@H]2[C@H](O)[C@H](S(=O)c2ccc(O)cc2)CC(=O)O1 (stereo not given in full),2.7,.,.,2.9,.,.,-19.3%
COc1ccc(NC(=O)CS(=O)(=O)c2cn(CC(=O)N3CCOCC3)c3ccccc23)cc1OC,-5.3,-0.5,-24.2,8.5,2.2,-2.9,.
COc1cc(/C=C2\CC/C(=C\c3cc(OC)c(OC)c(OC)c3)C2=O)cc(OC)c1OC,-0.4,1.0,-4.3,7.6,12.4,-183.0,2.0%
COc1ccc(OC)c(C(C)NS(=O)(=O)c2cccs2)c1 (stereo not given),-2.1,2.1,-25.8,-4.3,.,.,.

# From PubChem BioAssay
